From PubChem
EPAC1 ag val = validation of human EPAC1 agonists. O95398. EPAC1 Rap1b BODIPY-GDP exchange, fluorescence. Potency, µM, for the others: max response, positive = active, most hits filed as activators. 1% of 16,000 active; active means well fitted activation curve with a large enough effect; inconclusive means small, poorly fitted or top-dose-only effect; inactive means no such curve, though single readings can be large or run the other way;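 further: nearly all actives have a fitted effect of over 70% in size; series mostly up to about 76 or 150 µM; scaled to a cAMP control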
Target sequence (O95398 whole entry, looked up): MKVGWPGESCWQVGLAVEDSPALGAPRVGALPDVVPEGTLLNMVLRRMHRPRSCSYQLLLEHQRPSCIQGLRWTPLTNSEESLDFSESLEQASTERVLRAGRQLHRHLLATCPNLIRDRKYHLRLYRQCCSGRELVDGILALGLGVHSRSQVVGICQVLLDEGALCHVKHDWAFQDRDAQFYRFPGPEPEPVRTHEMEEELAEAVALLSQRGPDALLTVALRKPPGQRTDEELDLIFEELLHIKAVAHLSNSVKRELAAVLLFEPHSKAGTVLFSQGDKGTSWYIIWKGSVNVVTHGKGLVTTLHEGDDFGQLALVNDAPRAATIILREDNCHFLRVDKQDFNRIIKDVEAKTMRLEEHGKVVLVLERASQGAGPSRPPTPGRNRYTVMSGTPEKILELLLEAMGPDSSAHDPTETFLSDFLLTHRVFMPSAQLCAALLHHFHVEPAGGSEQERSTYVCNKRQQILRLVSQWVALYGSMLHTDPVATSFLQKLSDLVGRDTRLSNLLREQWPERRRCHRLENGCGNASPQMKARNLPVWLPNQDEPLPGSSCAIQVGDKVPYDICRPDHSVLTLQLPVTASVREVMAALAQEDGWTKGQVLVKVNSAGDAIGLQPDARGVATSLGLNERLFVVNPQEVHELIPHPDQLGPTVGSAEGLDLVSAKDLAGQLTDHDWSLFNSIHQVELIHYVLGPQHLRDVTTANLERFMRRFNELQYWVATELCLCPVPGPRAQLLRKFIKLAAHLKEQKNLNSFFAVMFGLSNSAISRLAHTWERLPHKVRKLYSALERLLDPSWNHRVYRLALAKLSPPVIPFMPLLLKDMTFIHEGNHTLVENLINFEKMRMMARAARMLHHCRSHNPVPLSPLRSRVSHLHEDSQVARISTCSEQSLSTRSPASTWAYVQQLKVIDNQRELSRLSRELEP
Starred values were filed as active, the others as inactive; u = inconclusive; & = joins results of further samples; ! = not confirmed by another sample; [ ] = remark or other dose. On the % scale 0 is the no-effect control and ±100 the full control effect; potency means the concentration at half of the fitted maximal effect. An excerpt; the hit share may differ from the screen's.

SMILES	EPAC1 ag val
COc1ccccc1CNc1ncncc1-c1ccc(C(=O)N(C)C)cc1	-26.3%
Cc1cnc(-n2ncc(C(=O)NCCN3CCOCC3)c2-c2cccs2)nc1-c1ccc(F)cc1	-11.9%
CC(C)(CNC(=O)c1cnn(-c2nccc(-c3cccs3)n2)c1C1CC1)N1CCOCC1	-12.5%
CCOC(=O)C1=C[C@@H](OC(CC)CC)[C@H](NC(C)=O)[C@@H](N)C1	26.3%
CC(C)=CCCC(C)C1CC[C@@]2(C)C3=C(CC[C@@]12C)C1(C)CCC(O)C(C)(C)C1CC3 (stereo not given in full)	8.2%
CN1CCN(c2ncc3nc(-c4cccs4)c(=O)n(CCc4ccccc4)c3n2)CC1	112µM*
Cc1cccc2c(N3CCCC3)nc(CNS(=O)(=O)c3ccc4ccccc4c3)nc12	4.1%
CCCCCCCCCCCCCCCC(=O)N[C@@H](COP(=O)(O)O)C(=O)O	-6.4%
O=S(=O)(c1ccccc1)N1CCC2(CCN(Cc3ccccc3)CC2)CC1	27.7%
O=S1(=O)CCOC[C@H](CC2CCCCC2)N1Cc1ccc(F)cc1	-81.7%[inhibitor]
CN1CC(O)c2cc(N=NC(N)=O)c(O)cc21 (stereo not given)	-6.9%
Cc1cccc(CNc2cc(-c3cccnc3)ncn2)c1	-1.4%
CCC(=O)OCC(=O)[C@@]1(OC(=O)CC)[C@H](C)C[C@H]2[C@@H]3CCC4=CC(=O)C=C[C@]4(C)[C@@]3(F)[C@@H](O)C[C@@]21C	25.2%
CCCCC#Cc1nc(NC)c2ncn([C@@H]3O[C@@H](CO)[C@H](O)[C@H]3O)c2n1	-12.3%
CS(=O)(=O)Nc1cccc(-c2cncnc2NCc2cccnc2)c1	-22.1%
COC(=O)C[C@H]1c2ccc(C(F)(F)F)cc2S(=O)(=O)N1Cc1ccccc1	-4.7%
Cc1cc(=S)[nH]c2ccccc12	25.0%
Nc1ccc(C(=O)Oc2ccccc2)c(O)c1	-72.7%[inhibitor]
COC(=O)c1cc(CNC(=O)c2ccccc2OC)cc(NC(=O)c2ccccc2F)c1	21.1%
Cc1ncc(COP(=O)(O)O)c(CN)c1O	-28.7%
Oc1cccc(-c2c3nc(c(-c4cccc(O)c4)c4ccc([nH]4)c(-c4cccc(O)c4)c4nc(c(-c5cccc(O)c5)c5ccc2[nH]5)CC4)C=C3)c1	-20.8%&-26.0%
COc1ccc(C2CC(=O)c3ccc(OC)cc3O2)cc1 (stereo not given)	26.7%
Nc1nc(=S)c2[nH]cnc2[nH]1	21.2%&-16.9%
CC[C@H]1OC(=O)C[C@@H](O)[C@H](C)[C@@H](O[C@@H]2O[C@H](C)[C@@H](O[C@H]3C[C@@](C)(O)[C@@H](O)[C@H](C)O3)[C@H](N(C)C)[C@H]2O)[C@@H](CC=O)C[C@@H](C)C(=O)/C=C/C(C)=C/[C@@H]1CO[C@@H]1O[C@H](C)[C@@H](O)[C@@H](OC)[C@H]1OC	4.2%&-13.0%
CC(C)Cc1nc2cc(NS(=O)(=O)N(C)C)cc(C(=O)N3CCSCC3)c2n1C	1.7%
O=S(=O)(c1ccccc1)N1CCC2(CCN(c3cccc(-c4ccccc4)c3)CC2)CC1	-37.2%[inhibitor]
Nc1ncnc2c1[nH]c(=O)n2C1CC(O)C(CO)O1 (stereo not given)	3.2%
COCc1ccc(C(=O)N2CCOc3ccc(CN4CCN(c5ccc(F)cc5)CC4)cc3C2)o1	-11.7%
O=C(O)c1ccccc1-c1oc2cc(O)ccc2c(=O)c1Oc1ccccc1	12.9%
COCC(=O)N1CCC[C@@]2(CCN(c3ncccn3)C2)C1	-52.3%[inhibitor]
O=C1CC[C@@H](O)CCN1CC[C@H](Sc1ccccc1)c1ccccc1	u
CCNC(=O)N1CCN(CCCC(c2ccc(F)cc2)c2ccc(F)cc2)CC1	-3.0%&-21.7%
CC(=O)c1ccc(F)c(-c2cc(C)cc3c2OC(CNC(=O)c2ccnn2C)C3)c1 (stereo not given)	-3.4%
O=C(Cn1cncn1)NCC1Cc2cc(-c3ccsc3)cc(Cl)c2O1 (stereo not given)	-10.2%
CCOc1ccc2ccccc2c1C(=O)N[C@@H]1C(=O)N2[C@@H]1SC(C)(C)[C@@H]2C(=O)O	-10.2%
COCC(=O)N1CCC2(CC1)CCN(c1ccccc1)CC2	-25.7%
Nc1nc(OCc2ccccc2)c2[nH]cnc2n1	-2.1%
CN1CCN(c2nc(-c3ccoc3)nc3ccccc23)CC1	-1.1%
Cc1ccc(C(=O)N(Cc2cc3cccc(C)c3nc2N2CCC(O)CC2)C2CC2)cc1	22.7%
CC(=O)OCC1=C(C(=O)O)N2C(=O)C(NC(=O)Cc3cccs3)C2SC1 (stereo not given)	28.7%
COc1ccccc1CCn1c(=O)cnc2cncnc21	-41.0%[inhibitor]
O=C(c1ccncc1)N1CCC2(CCN(Cc3nccs3)CC2)CC1	u
Cc1cc(C(=O)Nc2ccccc2-c2nc(CNC(=O)C3(C)CCCCC3)c(C)o2)c(C)o1	-12.1%
CCc1cc[n+](CC(=O)c2ccc(F)cc2)cc1C(=O)O	-26.1%
COc1ccc(-n2c(=O)c(CCc3ccccc3)nc3cnc(N4CCN(C)CC4)nc32)cc1	-19.1%

Five compounds out of the list above, ordered by the number in EPAC1 ag val, high to low.
SMILES | EPAC1 ag val
Cc1ccc(C(=O)N(Cc2cc3cccc(C)c3nc2N2CCC(O)CC2)C2CC2)cc1 | 22.7%
COC(=O)c1cc(CNC(=O)c2ccccc2OC)cc(NC(=O)c2ccccc2F)c1 | 21.1%
CCOc1ccc2ccccc2c1C(=O)N[C@@H]1C(=O)N2[C@@H]1SC(C)(C)[C@@H]2C(=O)O | -10.2%
COCc1ccc(C(=O)N2CCOc3ccc(CN4CCN(c5ccc(F)cc5)CC4)cc3C2)o1 | -11.7%
COCC(=O)N1CCC2(CC1)CCN(c1ccccc1)CC2 | -25.7%

Next section
SMILES	EPAC1 ag val
O=S(=O)(c1ccccc1)N1CCC2(CC1)CN(c1ccncc1)C2	-47.4%[inhibitor]
O=C(O)Cc1csc(-c2ccc(Cl)cc2)n1	24.8%
CC(C)(C)CC(C)(C)N=C1Nc2ccc(Cl)cc2N[C@]12C[C@H]1CCCC(=O)N3CC[C@@H](C2)[C@@H]13	-44.4%[inhibitor]
COc1ccc(S[C@@H]2C[C@@H](C(=O)Nc3ccc4nccnc4c3)N(C3Cc4ccccc4C3)C2)cc1	-2.3%
CC(=O)Nc1ccccc1C(=O)C(=O)O	-10.0%
CC(=O)N1CCC2(CCCN(c3ccccn3)C2)CC1	-44.5%[inhibitor]
COc1ncc2nc(-c3cc(F)cc(F)c3)c(=O)n(Cc3cccs3)c2n1	-34.4%[inhibitor]
CC(=O)N(CC(O)CO)c1c(I)c(C(=O)NCCO)c(I)c(C(=O)NCC(O)CO)c1I (stereo not given)	6.0%
O=C(c1cc(C(F)(F)F)cc(C(F)(F)F)c1)N1CCC2(CCN(Cc3ccccc3)CC2)CC1	-65.4%[inhibitor]
C[n+]1c2cc(N)ccc2cc2ccc(N)cc21 (tested in a mixture with another compound)	25.1µM*
CC(=O)N1CCN(c2ccc(OCC3CO[C@@](Cn4ccnc4)(c4ccc(Cl)cc4Cl)O3)cc2)CC1 (stereo not given in full)	u
COc1ccc(CCN(C)CCCC(C#N)(c2cc(OC)c(OC)c(OC)c2)C(C)C)cc1OC (stereo not given)	-12.0%&-14.6%&-10.4%
COC(=O)[C@@H]1CCCN1Cc1ccc2c(c1)CN(Cc1coc3ccc(C)cc3c1=O)CCO2	-8.0%
COc1ccccc1CN1CC[C@@]2(CCCN(C(=O)c3ccncc3)C2)C1	7.5%
COc1ccc(CN2[C@@H](CC(=O)O)c3ccc(/C=C/C(=O)O)cc3S2(=O)=O)cc1	u
COc1ncc2nc(-c3cc(F)cc(F)c3)c(=O)n(CCC#N)c2n1	19.1%
CCC1OC(=O)C(C)[C@@H](O[C@H]2C[C@@](C)(OC)C(O)C(C)O2)C(C)[C@@H](O[C@@H]2OC(C)CC(N(C)C)C2O)[C@](C)(O)CC(C)/C(=N\OCOCCOC)[C@H](C)C(O)[C@]1(C)O (stereo not given in full)	-18.3%
O=C1OC2(c3ccccc31)c1cc(Br)c(O)c(Br)c1Oc1c2cc(Br)c(O)c1Br	54.5%
CC(=O)OCC(=O)[C@@]1(O)[C@H](C)C[C@H]2[C@@H]3C[C@H](F)C4=CC(=O)C=C[C@]4(C)[C@H]3[C@@H](O)C[C@@]21C	-20.8%
COc1ccc(C(=O)N2CCC3(CCCN(C(=O)NC(C)C)C3)CC2)cc1	-44.2%[inhibitor]
Cc1noc(C)c1-c1cncnc1NC1CC1	-3.3%
CC(C)NC[C@H](O)c1ccc(NS(C)(=O)=O)cc1	3.9%
CCCS(=O)(=O)NCc1c(C)ncc2c1CCN(C(=O)/C=C/c1cccc(Cl)c1)C2	3.7%
Cc1c(NC(C)C)c(=O)n(-c2ccccc2)n1C	16.3%
COc1cccc(CN(C)C(=O)c2cnn(-c3nccc(-c4ccc5c(c4)OCO5)n3)c2C)c1	-4.6%
COc1ccc(-c2cc3ccccc3c(=O)o2)cc1	-52.5%[inhibitor]
CCC1(C2CCN(C(=O)c3ccc(C)cc3C)CC2)NC(=O)N(CCc2scnc2C)C1=O (stereo not given)	-3.6%
OC(C1=C/C(=C\c2ccncc2)c2ccccc21)c1ccncc1 (stereo not given)	3.1%
C=C[C@@H]1c2cc(C)ccc2N(S(=O)(=O)c2ccc(C)cc2)[C@H](c2ccc(C(C)(F)F)cc2)C1(C#N)C#N	21.8%
OC[C@@H](O)[C@@H](O[C@@H]1O[C@H](CO)[C@H](O)[C@H](O)[C@H]1O)[C@H](O)[C@@H](O)CO	-8.2%

Two neighbouring compounds already listed, quoted:
SMILES	EPAC1 ag val
COc1ncc2nc(-c3cc(F)cc(F)c3)c(=O)n(CCC#N)c2n1	19.1%
CCC1OC(=O)C(C)[C@@H](O[C@H]2C[C@@](C)(OC)C(O)C(C)O2)C(C)[C@@H](O[C@@H]2OC(C)CC(N(C)C)C2O)[C@](C)(O)CC(C)/C(=N\OCOCCOC)[C@H](C)C(O)[C@]1(C)O (stereo not given in full)	-18.3%

Pulled one by one from above:
SMILES	EPAC1 ag val
Cc1noc(C)c1-c1cncnc1NC1CC1	-3.3%
CC(C)NC[C@H](O)c1ccc(NS(C)(=O)=O)cc1	3.9%
CCCS(=O)(=O)NCc1c(C)ncc2c1CCN(C(=O)/C=C/c1cccc(Cl)c1)C2	3.7%
COc1ncc2nc(-c3cc(F)cc(F)c3)c(=O)n(CCC#N)c2n1	19.1%

Further compounds
SMILES	EPAC1 ag val
O=C(O)CCc1cc(I)c(O)c(I)c1	4.3%
COc1ccc(Oc2ncc3nc(-c4cc(F)cc(F)c4)c(=O)n(C4CC4)c3n2)cc1	17.9%
COc1ccc(C(Cl)=C(c2ccc(OC)cc2)c2ccc(OC)cc2)cc1	u
C[C@@H]1C(=O)CC2C(C)(C)CCC[C@]2(C)[C@@]1(O)CCc1ccoc1 (stereo not given in full)	-0.8%
C=CC1=C(C)C2=CC3=NC(=C(CC(=O)[O-])C4=NC(=C(C)C4=C([O-])[O-])C=c4[n-]c(c(C)c4CC)=CC1=N2)C(CCC(=O)[O-])C3C.[Cu+2].[Na+].[Na+].[Na+] (stereo not given)	-65.1%[inhibitor]
CC1=CCc2c(cc3oc(C)cc(=O)c3c2O)OC1	u
CC1CN(c2cc3c(cc2F)c(=O)c(C(=O)O)cn3-c2ccc(F)cc2F)CCN1 (stereo not given)	-11.6%
CCc1nc2cc(C(=O)NC3CCOC(C)(C)C3)cc(NC(=O)c3ccccc3OC)c2n1C (stereo not given)	-0.1%
COCC(=O)Nc1cc(C(=O)NC2Cc3ccccc3C2)cc2nc(-c3cccnc3)n(C)c12	3.8%
COC(=O)c1cccc(C(=O)N2CCc3c(cnc(C)c3CNC(=O)c3ccsc3)C2)c1	-4.7%
O=C(O)/C=C1\CCCc2ccccc2[C@H]1O	0.9%
COc1cccc2c1C(=O)c1c(O)c3c(c(O)c1C2=O)C[C@@](O)(C(C)=O)C[C@@H]3O[C@H]1C[C@H](N)[C@H](O)[C@H](C)O1	112µM*!
CCOC(=O)C[C@H]1c2ccc(C(F)(F)F)cc2S(=O)(=O)N1c1ccccc1	-85.0%[inhibitor]
O=c1c2ccccc2nc2n1CCc1c-2[nH]c2ccccc12	-15.9%
Cc1cnc(CNc2cc(-c3cccnc3)ncn2)cn1	3.8%
COC(=O)N1CCC2(CCCN(C(=O)Nc3cccc(C#N)c3)C2)CC1	19.7%
CC1OC(OC2C(CO)OC(OC3C(CO)OC(O)C(O)C3O)C(O)C2O)C(O)C(O)C1NC1C=C(CO)C(O)C(O)C1O (stereo not given)	9.6%
O=Cc1ccc(N2CCOCC2)cc1	13.0%
Cc1noc(C)c1C(=O)N1CCC[C@@]2(CCN(Cc3cc(C(F)(F)F)cc(C(F)(F)F)c3)C2)C1	-115.3%[inhibitor]
Cc1cnc(CNc2cc(-c3cccc(NS(C)(=O)=O)c3)ncn2)cn1	-8.8%
COc1cc(=O)n2c(c1C(=O)NCc1ccco1)CCN(Cc1ccc3ccccc3c1)CC2	-7.1%
CN1CCN(C2=Nc3cc(F)ccc3Cc3ccccc32)CC1	-12.2%&0.5%
O=C1NC(=O)/C(=C/c2ccc(-c3ccc(F)cc3O)o2)S1	-14.4%
C[N+]1(CC(=O)c2ccc(Cl)c(Cl)c2)CCOCC1	5.5%
Cc1ccnc(NS(=O)(=O)c2ccc(N)cc2)n1	-1.2%&-16.4%
COc1ccc2c(c1)OCC(Cc1ccc(OC)c(OC)c1)C2=O (stereo not given)	u
CC[N+]1(CC(=O)c2ccc(I)cc2)CCCCC1	12.2%
COc1ccc2[nH]cc(CCNc3ncncc3-c3ccccc3CN(C)C)c2c1	27.1%
O=S(=O)(c1ccccc1)N1CCC2(CCCN(Cc3cc(C(F)(F)F)cc(C(F)(F)F)c3)C2)CC1	22.8%
COc1ccc2[nH]c(CCc3nc4c(OC)c(OC)ccc4[nH]3)nc2c1OC	-7.3%
C[C@H]1NCc2cc(-c3ccc4c(=O)c(C(=O)O)cn(C5CC5)c4c3OC(F)F)ccc21	u
Cc1ccc2cc(CNC(C)c3cccc4ccccc34)c(N3CCC(O)CC3)nc2c1 (stereo not given)	6.1%
